Six1-Eya2 blk = Six1/Eya2 interaction inhibition. Q15475+O00167. AlphaScreen GST-Six1/His-Eya2 binding, biochemical; hits give low values; control for the full effect not named in the record. activity change, % (test concentration not listed). hit rate 0.56% among 360,000. AID 651725; in the data active = activity change below about -65%; inconclusive = about -30% to -65%; inactive = above about -30%; note: % is set by controls: 0 for no effect and ±100 for the full control effect; compound concentration not given in the record
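Homogeneous AlphaScreen proximity assay pairing GST-Six1 with His-tagged Eya2 (added as 5X mix: 250 nM and 500 nM) in 50 mM Tris pH 8.0, 300 mM NaCl, 1 mM TCEP. Glutathione donor and nickel acceptor beads; 1 h, 37 °C, dark.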
D2 ag = activates the human D2 dopamine receptor; DiscoveRx PathHunter D2 beta-arrestin, luminescence, 90 min; 100% = 57 uM dopamine signal; activation, % (test concentration not listed); hit rate 0.084% among 360,000; in the data active = activation above about 40%; inconclusive = about 15% to 40%; inactive = below about 15%; note: compound concentration not given in the record; the text of the record calls up to 30% inactive
Target sequence (P14416 whole entry, looked up): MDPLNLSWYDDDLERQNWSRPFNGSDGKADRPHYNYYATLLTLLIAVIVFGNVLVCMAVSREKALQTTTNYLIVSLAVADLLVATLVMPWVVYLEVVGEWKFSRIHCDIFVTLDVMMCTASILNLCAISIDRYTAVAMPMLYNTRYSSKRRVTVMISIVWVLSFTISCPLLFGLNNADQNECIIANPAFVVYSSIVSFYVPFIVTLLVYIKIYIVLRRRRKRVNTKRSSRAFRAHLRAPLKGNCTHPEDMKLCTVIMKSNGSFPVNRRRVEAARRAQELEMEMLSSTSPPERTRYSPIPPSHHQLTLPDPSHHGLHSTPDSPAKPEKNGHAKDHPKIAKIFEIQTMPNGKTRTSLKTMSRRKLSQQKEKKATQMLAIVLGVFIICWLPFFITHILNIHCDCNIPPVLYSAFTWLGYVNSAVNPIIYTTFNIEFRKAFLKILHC
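Agonist mode: compounds alone added to overnight-plated D2 PathHunter cells for 90 min at 37 C, with 57 uM final dopamine (EC100) defining full response. Beta-arrestin recruitment detected by chemiluminescent reagent, read after 1 h at ambient temperature.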
D2 potentiator = potentiates the human D2 dopamine receptor allosterically | P14416 | DiscoveRx D2 beta-arrestin cells, luminescence, 90 min; 100% = 57 uM dopamine signal | AID 624464 | hit rate 0.23% among 360,000 | potentiation, % (test concentration not listed); active = potentiation of 50% or more; inconclusive = 30% to 50%; inactive = 30% or less;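 note: compound concentration not given in the record; tested on top of an EC20 dose of dopamine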
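PathHunter D2 cells, attached overnight at 37 deg C, received compound in DMSO plus dopamine at EC20 (50 nM final) for 90 min at 37 deg C. Beta-arrestin recruitment was read as luminescence after 1 h with detection reagent at ambient temperature.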
gsp agonist = gsp mutant agonism. gsp mutant cells, cAMP HTRF, 30 min; control for the full effect not named in the record. Potency, µM (doses to about 76.9 µM), without a hit: at the highest dose activation (cAMP increase), actives largely listed as activators. hit rate 0.13% among 340,000. AID 624287; active = well fitted activation curve with a large enough effect; inconclusive = small, poorly fitted or top-dose-only effect, or another doubt; inactive = no such curve, though single readings can be large or run the other way; cell line not stated here;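 note: phosphodiesterase inhibitor Ro 20-1724 added with compounds to block cAMP breakdown; potency is the fitted concentration of half-maximal effect; nearly all actives have a fitted effect of over 60% in size; about a fifth of the inactives were tested at one dose only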
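Cells stably selected in G418 were plated at 2000/well, grown 16-24 hr, then given compounds in DMSO with the PDE inhibitor […] (300 uM solution added) for 30 min at 37C; cAMP was read by HTRF.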
gsp antagonist = antagonists of gsp mutant (McCune-Albright syndrome); AID 624288; gsp-mutant cells, cAMP HTRF, 30 min; control for the full effect not named in the record; hit rate 0.4% among 340,000; Potency, µM (top dose mostly 76.9 µM), inactives show top-dose activity change, negative = inhibition, actives largely listed as inhibitors; active = falling curve of any shape with a large fitted effect; inconclusive = falling curve, mostly with a smaller effect; inactive = flat or rising curve; cell line not stated here;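 note: intracellular cAMP measured with PDE inhibitor Ro 20-1724 present during compound exposure; potency is the fitted concentration of half-maximal effect; % is set by controls: 0 for no effect and ±100 for the full control effect; nearly all actives have a fitted effect of over 65% in size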
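HTRF cAMP read-out (cAMP-d2 plus anti-cAMP antibody-K in lysis buffer, 30 min RT). Before lysis, cells are exposed to compounds with […] for 30 min at 37C in DPBS containing Ca/Mg, BSA and Tween 20.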
CtBP-E1A blk = inhibitors of CtBP/E1A interaction; AlphaScreen GST-E1A/His-CtBP binding, 1536-well; hits give low values; control for the full effect not named in the record; activity change, % (test concentration not listed); hit rate 0.49% among 340,000; AID 651724; in the data active means activity change below about -65%; inconclusive means about -30% to -65%; inactive means above about -30%; note: % is set by controls: 0 for no effect and ±100 for the full control effect; compound concentration not given in the record
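Homogeneous bead-based format: GST-tagged E1A captured on glutathione donor beads, His-tagged CtBP on nickel acceptor beads; compounds precede bead addition by 2 h at 37 °C.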
Active calls of the source: *; ? = inconclusive; nt = no result given; [ ] = dose if it differs, or a comment.

SMILES | Six1-Eya2 blk | D2 ag | D2 potentiator | gsp agonist | gsp antagonist | CtBP-E1A blk
CC(=O)N1[C@H](C)C=C[C@]1(Cc1ccccc1)C(=O)NCc1cc(F)cc(C(F)(F)F)c1 | 1.5 | -1.1 | -8.6 | nt | 3.0% | -15.7
Cc1c(C)c2ccc(OCC(=O)N(C)C3CCS(=O)(=O)C3)c(C)c2oc1=O (centres undefined) | 9.7 | 2.4 | -16.2 | ? | -32.1% | 6.3
CC(=O)N1CCc2cc(S(=O)(=O)NC(C(=O)NC(C)c3ccccc3)C(C)C)ccc21 (centres undefined) | 2.1 | -3.7 | -6.5 | 17.7% | 16.4% | -0.4
Cc1cc(CNC(=O)C2CCC(=O)N(CCc3cccc(F)c3)C2)nn1C (centres undefined) | 4.2 | 0.1 | -6.9 | 27.5% | -1.1% | 2.3
c1ccc(COCCN2CCN(CCOCc3ccccc3)CC2)cc1 | 1.1 | 0.1 | -18.9 | ? | 8.5% | -0.3
COc1ccc(-c2cc(C(F)(F)F)nc(N3CCN(C)CC3)n2)cc1 | -22.5 | -1.6 | -38.8 | 0.7% | 14.2% | -15.1
COc1ccc(S(=O)(=O)N(C)c2ccc(C(=O)N3CCCCC3)cc2)cc1OC | 0.9 | 9.2 | 0.4 | 7.8%[15.4 µM] | 10.7% | -1.5
CC1CCN(C(=O)COC(=O)Cc2c[nH]c3ccccc23)CC1 | 21.3 | -1.3 | -1.4 | -56.8% | -2.7% | 0.0
CNC(=O)CN(CCc1ccccc1)S(=O)(=O)c1ccc(OC)cc1 | 3.9 | 3.6 | -3.6 | ? | 1.9% | 5.1
Cn1c(=O)n(CC(=O)NCC2CCCO2)c(=O)c2c3c(sc21)COC(C)(C)C3 (centres undefined) | 1.1 | 4.3 | 0.0 | 12.9% | -1.9% | 2.2
O=C(Nc1ccccc1)C1=C(O)CC(c2ccoc2)CC1=Nc1ccccc1 (centres undefined) | -7.3 | -0.8 | -15.3 | -40.4% | -1.9% | 5.6
CC1CCCCC1NS(=O)(=O)CCNC(=O)c1ccccc1 (centres undefined) | 11.7 | -1.5 | -10.2 | -47.8%[inhibitor] | -0.1% | -8.0
Cc1cc(C)cc(NC(=O)C(OC(=O)Cn2cnc3c2c(=O)n(C)c(=O)n3C)c2ccccc2)c1 (centres undefined) | -14.7 | -2.0 | -10.4 | 6.3%[15.4 µM] | -3.9% | -3.9
CC(C)OC(=O)CN1C(=O)S/C(=C/c2ccc(N3CCCCC3)o2)C1=O | -5.6 | 1.6 | 15.2 | -35.2% | 2.1% | 10.1
CNS(=O)(=O)c1cccc(C(=O)OCC(=O)Nc2ccc(-c3nc4ccc(C)cc4s3)cc2)c1 | 0.9 | -0.5 | -6.1 | 32.5% | -10.1% | 8.9

Nothing new here: entries from further up.
SMILES | Six1-Eya2 blk | D2 ag | D2 potentiator | gsp agonist | gsp antagonist | CtBP-E1A blk
CNC(=O)CN(CCc1ccccc1)S(=O)(=O)c1ccc(OC)cc1 | 3.9 | 3.6 | -3.6 | ? | 1.9% | 5.1
Cn1c(=O)n(CC(=O)NCC2CCCO2)c(=O)c2c3c(sc21)COC(C)(C)C3 (centres undefined) | 1.1 | 4.3 | 0.0 | 12.9% | -1.9% | 2.2

Next structures:
SMILES | Six1-Eya2 blk | D2 ag | D2 potentiator | gsp agonist | gsp antagonist | CtBP-E1A blk
Nc1nc(CCl)nc(Nc2ccccc2)n1 | -1.2 | -0.3 | -4.9 | -14.9% | -5.8% | 4.9
CCOc1cc(N2CCOCC2)c(OCC)cc1NC(=O)CN1C(=O)NC(Cc2ccccc2)C1=O (centres undefined) | 2.8 | -2.2 | -3.7 | 29.7% | -7.3% | -0.7
COC(=O)Cn1ncc2c3ccccc3n(Cc3ccccc3)c2c1=O | -3.9 | 1.0 | -6.7 | 7.6% | ? | 0.7
O=C(CCCCCn1c(=O)[nH]c2ccccc2c1=O)NCCCN1CCN(c2ccccc2F)CC1 | -5.1 | 2.1 | -27.8 | 8.8% | -9.4% | -8.9
O=C(c1ccc(Br)o1)N1CCCc2ccccc21 | 4.9 | -1.3 | -21.2 | 8.5% | ? | -2.4
O=C(c1cc(-c2ccc(Cl)cc2)n(-c2cc(Cl)ccc2Cl)n1)N1CCOCC1 | 9.8 | -3.1 | 5.3 | 3.2% | 5.3% | -3.0
CN(C)S(=O)(=O)c1cccc(COC(=O)c2cccnc2Cl)c1 | -6.2 | 4.8 | -1.8 | ? | -9.6% | 2.7
CC(C)CNC(=O)C(=O)NCc1ccccc1 | -7.5 | -0.5 | -8.6 | 16.5% | -13.5% | 3.5
CCCC(=O)C1=C(O)C(C(=O)OC)C(C)(C)CC1=Nc1ccncc1 (centres undefined) | 25.7 | -1.0 | -30.1 | -5.9% | -9.1% | 0.0
O=C(NCCCN1CCOCC1)c1cc2c(s1)CSC2 | -0.8 | -1.0 | -10.3 | 10.2% | -3.3% | -4.9
O=C(Nc1sc2c(c1C(=O)O)CCCC2)c1ccc(Cl)cc1 | -7.3 | -3.4 | -6.5 | -37.5% | ? | -3.3
CCOc1ccc(C(=O)n2cnnc2N)cc1 | 4.5 | -2.7 | 0.4 | 17.0%[15.4 µM] | 2.5% | -0.2
COc1cc(/C=N/Nc2nc(=O)[nH]nc2C)ccc1O | -25.9 | -5.5 | -6.2 | -7.2% | -0.2% | ?
CSc1nnnn1-c1ccc(C)c(Cl)c1 | 21.1 | -1.0 | 17.8 | 10.6%[15.4 µM] | -1.2% | -0.4
COc1ccc(/C=N/NC(=O)C2c3ccccc3Oc3ccccc32)c(OC)c1 | 0.3 | -3.6 | -10.3 | 1.8% | 3.5% | 2.5
COc1ccc(/C=C/C(=O)c2cc(Br)ccc2OC(=O)c2ccco2)cc1OC | -9.1 | -2.1 | -9.1 | -2.7%[15.4 µM] | 12.9% | 3.8
O=C(Nc1ccc2[nH]c(=O)[nH]c2c1)C(F)(F)F | 3.0 | -0.5 | 0.4 | -37.2%[inhibitor] | -2.5% | -7.6
O=C(CCS(=O)(=O)c1ccc(Cl)cc1)Nc1nccs1 | -0.9 | -5.1 | -11.8 | 0.5% | 7.8% | 5.4
O=C(NC1CC1)C1=C[C@@H](c2csc3ccccc23)C[C@@H](OCc2ccc(CO)cc2)O1 | -0.7 | 2.8 | 6.5 | nt | ? | -13.8
COc1cccc(-c2ccc3c(c2)S(=O)(=O)c2cccc(C(=O)O)c2C3=O)c1OC | -5.2 | -4.0 | -2.5 | nt | -2.7% | -3.3
CCc1ccc(OCC(=O)Nc2ncc3c(n2)CC(C)(C)CC3=O)cc1 | -1.5 | 0.2 | 9.5 | 2.9% | 3.4% | -26.7
O=C1NC(=S)SC1=Cc1cc(Br)ccc1O | -20.2 | -4.7 | -6.6 | -4.0% | 2.5% | -25.5
CCCc1nc2ccccc2c(C(=O)OCC(=O)NCc2ccco2)c1CC | -3.4 | -3.3 | -3.7 | -28.1% | -5.7% | -4.3
O=C(COc1ccc(Cl)cc1)N1CCN(C(=O)c2ccccc2F)CC1 | -6.2 | -2.9 | -1.3 | 6.5%[15.4 µM] | -8.3% | 0.0
CCc1nn2c(N3CCOCC3)cc(C)nc2c1-c1ccccc1 | 4.9 | 0.1 | -1.7 | -21.5% | -7.4% | nt
COc1ccc(/C=C2/CCCC(C(=O)C(F)(F)F)=C2O)cc1OC | -2.4 | -5.5 | -8.1 | -11.4% | -4.8% | nt
CCOc1ccc(/C=N/n2nnnc2N)cc1OCC | -8.8 | 7.1 | -7.1 | -29.7% | 0.9% | nt
Cc1cc(NC(=O)COC(=O)CC2CCCC2)c([N+](=O)[O-])cc1C | ? | -3.3 | -4.6 | ? | -3.1% | -29.1
Cc1ccn2c(/C=N/OCc3ccc(F)cc3)c(-c3ccc(Cl)cc3)nc2c1 | 12.8 | -1.2 | -7.1 | -30.0%[inhibitor] | 2.8% | 9.5
Cc1cc(C)c(C)c(S(=O)(=O)N2C(=S)NC(=O)C2CC(C)C)c1C (centres undefined) | -2.1 | 0.0 | 21.4 | 2.6% | -12.0% | -10.6
CCC(C)Nc1nc(OCC(F)(F)F)nc(OCC(F)(F)F)n1 (centres undefined) | 9.7 | -1.1 | -1.9 | 11.3% | 3.9% | -1.0
COc1ccc(NC(=O)C[C@H]2C(=O)N(Cc3ccccc3)C[C@@H]2c2ccc(OC)cc2)cc1 | 0.5 | -11.0 | 0.0 | -17.9% | nt | 3.0
O=C(Cn1nnc2ccccc21)c1ccccc1 | 9.9 | -5.2 | -10.7 | -8.2% | 5.6% | -17.5
N#Cc1c(-c2ccc(F)cc2)cc(-c2cccs2)nc1SCC(=O)O | 6.3 | -4.7 | -10.0 | -3.0% | ? | nt
COC(=O)c1ccc(C2C(Oc3ccccc3)C(=O)N2CCc2ccc(OC)c(OC)c2)cc1 (centres undefined) | 0.2 | 2.9 | 0.8 | 43.2% | -2.2% | -3.9
Cc1ccc(S(=O)(=O)NCCc2ccc(S(N)(=O)=O)cc2)cc1 | -3.9 | -0.9 | -22.6 | 1.3% | 2.8% | 4.6
Cc1nc(-c2cc(-c3nc(-c4cc(C(F)(F)F)cc(C(F)(F)F)c4)no3)no2)cs1 | 3.7 | -2.8 | -4.8 | -52.9%[inhibitor] | 7.1% | 6.5
Cc1noc(C)c1CSCC(=O)Oc1ccc(N(C)S(=O)(=O)c2ccccc2)cc1 | -1.6 | -1.3 | 10.7 | -21.1% | 13.3% | 0.3
CCOC(=O)C1=C(C)N(c2ccccc2)C(=O)C1CC(=O)O (centres undefined) | 3.6 | -1.8 | 7.2 | -21.1% | -7.3% | -5.4
c1ccc2c(-c3cc(NCc4ccncc4)n4nccc4n3)cccc2c1 | 7.9 | 3.1 | -2.8 | nt | nt | 3.5
Cc1ccnc(NC(=O)CCC(=O)c2cc(C)sc2C)c1 | 0.5 | -2.9 | -51.6 | -16.6%[15.4 µM] | 2.1% | -1.1
CCc1ccccc1N(CC(=O)N1CCN(c2ccccc2F)CC1)S(C)(=O)=O | -3.7 | -1.6 | -6.8 | -38.1%[inhibitor] | -7.7% | 8.7
N#Cc1ccc(C(=O)N2CCN(c3ncccn3)CC2)cc1 | 3.3 | -5.3 | -5.5 | 2.1%[15.4 µM] | 2.7% | 0.0
CC(c1ccc2c(c1)OCO2)n1c(=S)[nH]c2ccccc2c1=O (centres undefined) | -9.4 | -3.5 | -0.5 | 25.5% | -23.8% | -5.2
COc1ccc(C(=O)OCC(=O)NCCN2C(=O)CSC2=O)cc1[N+](=O)[O-] | -11.5 | -4.5 | -4.4 | 5.6% | -4.8% | -11.9

An excerpt from above in order of the D2 ag value, rising.
| SMILES | D2 ag |
| --- | --- |
| N#Cc1ccc(C(=O)N2CCN(c3ncccn3)CC2)cc1 | -5.3 |
| Cc1noc(C)c1CSCC(=O)Oc1ccc(N(C)S(=O)(=O)c2ccccc2)cc1 | -1.3 |
| CCC(C)Nc1nc(OCC(F)(F)F)nc(OCC(F)(F)F)n1 (centres undefined) | -1.1 |
